# Sa helicase inh: S. aureus DNA helicase inhibition; purified S. aureus helicase, fluorescence unwinding assay; about half of the hits fall short of the stated cut; inhibition, %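 (tested at about 80 µM)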; 120,000 tested, 0.05% active; AID 485395;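 active means both duplicates at 50% or more, or one of them with a favoured structure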;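 further: 0% = mean of negative control wells and 100% = mean of positive control wells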
# MgrA DNA FP: modulators of Staphylococcus aureus MgrA DNA binding; AID 602314; 84,000 tested, 0.13% active; inhibition, %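 (about 10 µg/mL by stock and volumes)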; fluorescence polarization;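 active means above 50% in either of two replicates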;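 further: 0% = protein plus DNA without compound and 100% = DNA alone without protein; higher means less MgrA bound to DNA so lower polarization; one replicate is shown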
# An asterisk follows results filed as active; x = no result given; & = joins results of further samples. A portion of the library; the hit share may differ from the screen's.
SMILES,Sa helicase inh,MgrA DNA FP
Cc1cc(C)nc(SCc2nnc(SCC(=O)NCc3ccccc3)o2)n1,0,0.9
O=C(O)c1ccc(N2CCCCS2(=O)=O)cc1,-8,-1.1
COC(=O)c1sccc1N1C(=O)Cn2cccc2C1C(=O)NC1CCC(C)CC1 (configuration not stated),-6,x
CCCCn1c(SCc2cc(=O)n3cc(Cl)ccc3n2)nc2ccc(N3CCOCC3)cc2c1=O,1,x
O=C1Nc2ccccc2/C1=C/C=C/c1ccco1,17,13
O=C(NCCCn1ccnc1)c1nn2c(C(F)(F)F)cc(-c3ccco3)nc2c1Cl,x,-3.0
Cc1nc(C)c(-c2ccn(C(=O)c3ccc(C(F)(F)F)cc3)n2)o1,x,4.0
CC(C)(C)c1ccc(NC(=S)NCCC(=O)O)cc1,x,0.5
Cc1cc(C)n2cc(-c3ccc(Cl)cc3)c(C(=O)O)c2n1,x,1.8
CCOC(=O)N/N=C/c1ccc(Cl)c(Cl)c1,x,-1.9
COC(=O)c1c(O)cn(-c2ccc(C)c(C)c2)c1C,8,1.4
Cc1csc(-c2ccc(Oc3ccc(Cl)cc3)nc2)n1,x,-0.8
Cc1nn(Cc2ccccc2)c(Cl)c1C(=O)OCC#N,-2,x
O=C1NC(C(F)(F)F)(C(F)(F)F)N=C2SC=CN12,44,x
N#CC1=C(N)Oc2n[nH]c(-c3ccccc3)c2C1c1ccoc1 (configuration not stated),7&6,1.6&2.5
O=C(NCc1ccc2c(c1)OCO2)c1cc2ccccc2o1,8,-1.8
O=C(c1ccc(Cl)cc1Cl)n1cc2c(n1)CCOC2,x,-0.1
O=C(Nc1ccc(Nc2ccccc2)cc1)c1cc(=O)c2ccccc2o1,-7,-0.7
COC(=O)c1c(-c2c(Cl)cccc2Cl)noc1NC(=O)NN1CCCCC1,x,0.7
CCn1c(SCC(=O)NC(=O)c2cccn2C)nnc1-c1cccs1,-10,x
COc1cc(/C=C2/NC(=S)NC2=O)ccc1OCc1ccc(Cl)cc1Cl,x,-0.6
O=C(NCc1ccccc1)c1ccc[n+]([O-])c1,6,x
Cc1cc(OC(=O)c2c(-c3ccccc3)noc2C)n(-c2ccccc2)n1,x,-0.2
CC(C)(C)c1ccc(NC(=O)c2ccc(N3C(=O)CSCC3=O)cc2)cc1,x,0.3
CNC(=S)NCCc1ccccc1,x,2.6
CN1C(=O)C(CC(=O)Nc2ccc(F)cc2)N(Cc2ccccc2)C1=S (configuration not stated),10,2.0
Cc1cc(C(=O)N2CCN(C(c3ccccc3)c3ccccc3)CC2)no1,4,1.1
COC(=O)c1c(NC(=O)c2ccc(S(=O)(=O)N3CCCCC3C)cc2)sc2c1CCN(C)C2 (configuration not stated),5,-1.2
COc1cc(C(=O)Oc2ccccc2/C=C2\Sc3ccccc3C2=O)cc(OC)c1OC,x,3.9
COc1cccc(-c2cc(C(F)(F)F)n3ncc(C(=O)NN4CCN(C)CC4)c3n2)c1,10,0.3
COc1ccc(NC(=O)/C(C#N)=N/Nc2cc(C(=O)O)ccc2C)cc1,6,x
O=C(Nc1cccc2c1C(=O)NC2=O)c1ccc(Oc2ccccc2)cc1,11,x
O=C(Nc1c(C(=O)N2CCCCCC2)oc2ccccc12)c1ccccc1,22,x
CN(C(=O)/C=C/C(=O)O)c1ccccc1,1,x
CC(C(=O)O)n1nc2ccccc2n1 (configuration not stated),-11,-7.2
CC(NC(=O)c1ccco1)c1ccccc1 (configuration not stated),4,-1.0
CCCC(=O)Nc1nnc(SCC(=O)Nc2cc(C(F)(F)F)ccc2Cl)s1,-19,x
CN(C)S(=O)(=O)c1ccc(C(=O)COC(=O)c2ccccc2NCc2ccco2)cc1,-9,x
O=C(O)CSC(=S)Nc1cccnc1,24,x
CN(C)S(=O)(=O)c1ccc(=O)[nH]c1,31,x
O=C(O)c1cc(-c2ccccc2)nc2ccccc12,6,-2.5
C=CCCN1C(=O)c2ccccc2C1=O,x,1.4
COc1ccc(C(N)C2CC2)cc1 (configuration not stated),6,x
CCN(C(C)=O)c1nnc(CSc2nc3ccccc3s2)s1,15,2.8
O=S(=O)(c1cccs1)N1CC=C(c2ccccc2)CC1,x,0.3
CN1CCN(C(=O)c2nc(SCc3ccc(F)cc3)ncc2Cl)CC1,-2,x
O/N=C1/Cc2ccccc2OC1c1ccc(F)cc1 (configuration not stated),x,-2.5
O=C(NCCCN1CCCCC1)c1ccc2c(c1)NC(=O)c1ccccc1S2,14,0.0
CC(=Nc1ccccc1Cl)c1sc2ccccc2c1O,x,0.1
O=C(CC(NCCc1cc2ccccc2[nH]1)C(=O)O)c1ccc(Br)cc1 (configuration not stated),-2,8.1
CC(C)(C)c1ccc(-c2cc(C3CCNCC3)[nH]n2)cc1,-2,-2.9
CC(=O)N/N=C(\C)c1ccc2ccccc2c1OC(F)F,4,x
Fc1cccc(F)c1CN1CC=CCC1,-46,x
Nc1nnc(-c2ccc3nsnc3c2)o1,x,-0.4
Cc1ccc(-c2csc(CS(=O)(=O)C(C)(C)C)n2)c(C)c1,x,-0.3
COc1ccc(C2NCCc3c2[nH]c2ccc(OC)cc32)cc1 (configuration not stated),9,x
CCn1c(O)c(C=N/C(=N/O)c2ccc(NC(=O)C3CC3)cc2)c(=O)n(CC)c1=S,-11,x
CN1C(=O)C(=C2C=C(c3ccccc3)OC3=C2CCCC3)C(=O)N(C)C1=O,7,x
Cc1ccc(CN(Cc2ccco2)C(=O)c2ccccc2)cc1,10,0.2
CCC(C)(C(=O)NC1CCCCC1)N(Cc1cccs1)C(=O)Cc1cccs1 (configuration not stated),-23,x

# A second format for 6 compounds above:
molecule	Sa helicase inh	MgrA DNA FP
O=C(Nc1cccc2c1C(=O)NC2=O)c1ccc(Oc2ccccc2)cc1	11	x
Cc1cc(C)n2cc(-c3ccc(Cl)cc3)c(C(=O)O)c2n1	x	1.8
CCC(C)(C(=O)NC1CCCCC1)N(Cc1cccs1)C(=O)Cc1cccs1 (configuration not stated)	-23	x
O=C(O)c1ccc(N2CCCCS2(=O)=O)cc1	-8	-1.1
CN(C)S(=O)(=O)c1ccc(=O)[nH]c1	31	x
C=CCCN1C(=O)c2ccccc2C1=O	x	1.4

# Further results.
SMILES,Sa helicase inh,MgrA DNA FP
C(=N\c1nc2ccccc2n1Cc1ccccc1)/c1ccc2c(c1)OCO2,3,-0.2
CC(C)NC(=O)c1ccc2c(=O)n3c(nc2c1)CCCCC3,8,x
O=C(CSc1nnc2sc3ccccc3n12)Nc1ccc(F)cc1,x,-0.8
Cc1cc(C)c2c(=O)[nH]n(C3CCCC3)c2n1,1,-1.6
COc1ccccc1-n1cnnc1SCC(=O)NC1CCCCC1C (configuration not stated),-5,x
CC(=O)NCCC(=O)N1CCCSC1=Nc1c(C)cccc1C,-12,x
O=c1cc(C(F)(F)F)nc(N2CCSCC2)[nH]1,x,-1.4
O=C(Cn1ncc2c1-c1ccccc1OC2)NCCN1CCOCC1,-15,x
NS(=O)(=O)c1cccc(C(=O)O)c1,9,-9.7
C(=N\N1CCN(Cc2cccc3ccccc23)CC1)/c1ccco1,10,2.2
Cc1noc(C)c1CCC(=O)NC1=NCCS1,-17,x
CCN(CC)c1ccc(Nc2ncnc3ccccc23)cc1,0,0.4
CCNC(=O)/C(C#N)=C/c1ccc(OC(F)F)cc1,6,x
N#CC(C(=O)CN1C(=O)S/C(=C\c2cccs2)C1=O)c1ccccn1 (configuration not stated),1,x
COC(OC)C1Nc2ccccc2C(=O)N1c1cccc(C(F)(F)F)c1 (configuration not stated),17,-6.4
O=C(NCCc1c[nH]c2ccccc12)c1ccc(COc2ccc(F)cc2)o1,3,x
Cc1nc2c(C)nn(-c3ccccc3)c2s1,16,x
COc1ccc(NC(=O)CN(C)S(=O)(=O)c2ccc(-c3ccc(=O)[nH]n3)s2)cc1,8,x
COc1ccc(CNC(=O)c2cn[nH]c2-c2ccc(OC)cc2)cc1,11,1.2
O=C(NC1CCCC1)c1ncoc1-c1cccs1,20,x

# A section taken from the entries so far, as a working copy:
SMILES,Sa helicase inh,MgrA DNA FP
Cc1cc(C)nc(SCc2nnc(SCC(=O)NCc3ccccc3)o2)n1,0,0.9
O=C(O)c1ccc(N2CCCCS2(=O)=O)cc1,-8,-1.1
COC(=O)c1sccc1N1C(=O)Cn2cccc2C1C(=O)NC1CCC(C)CC1 (configuration not stated),-6,x
CCCCn1c(SCc2cc(=O)n3cc(Cl)ccc3n2)nc2ccc(N3CCOCC3)cc2c1=O,1,x
O=C1Nc2ccccc2/C1=C/C=C/c1ccco1,17,13
O=C(NCCCn1ccnc1)c1nn2c(C(F)(F)F)cc(-c3ccco3)nc2c1Cl,x,-3.0

# Further compounds:
SMILES,Sa helicase inh,MgrA DNA FP
CC(=O)Nc1cccc(Cl)c1,x,-1.6
CC(C)c1ccc(NC(=O)CNS(=O)(=O)c2ccccc2)cc1,6,1.5
Cc1[nH]c2ccc(OC(F)(F)F)cc2c1CCNC(=O)c1c(Cl)cnn1C,19,1.2
CCOC(=O)CC1CN(C)CCN1C (configuration not stated),15,-2.2
CCCc1cc(NCCc2ccc(OC)cc2)n2ncnc2n1,3,-1.6
O=C(NCc1ccccc1)c1nc(-c2ccccc2)no1,23,2.1
CCOC(=O)c1c(NC(=O)c2cnn3c2NC(c2ccc(Br)cc2)CC3C(F)(F)F)sc2c1CCCC2 (configuration not stated),x,3.2
CN(C(=O)Nc1ccc2c(c1)OCCO2)C1CCCCC1,-6,x
Cc1ccnc(SC(C(=O)O)c2ccccc2)n1 (configuration not stated),0,x
COc1cccc(C(=O)OCC(=O)N(C)C)c1,3,x
CCCCC(=O)Nc1ccc(C(=O)NCc2ccc(S(N)(=O)=O)cc2)cc1,8,1.8
COc1ccc(NC(=O)c2cccs2)cc1OC,9,-1.4
Cc1ccc(NC(=O)CCC(=O)n2nc(C)cc2C)c(C)c1,-24,x
COc1cccc(CN2CCN(C(=O)Nc3cccc(OC)c3)CC2)c1,-12,0.3
CCC(=O)NC(Nc1c(C)n(C)n(-c2ccccc2)c1=O)(C(F)(F)F)C(F)(F)F,18,-0.2
CC(C)Cc1cc(C(=O)Nc2ccc3c(c2)OCO3)no1,12,x
O=C(CC(c1ccccc1)N(C(=O)Nc1ccccc1Cl)c1ccccc1)C1CC1 (configuration not stated),-16,0.9
Cc1ccc(N2C(=O)CC(NCC(=O)O)C2=O)c(C)c1 (configuration not stated),6,-4.9
CCOC(=O)/C(=N\Nc1ccccc1Cl)N1CCCCC1,-5,x
COc1ccc(Nc2nc3ccc(Cl)cc3n3cnnc23)c(OC)c1,21,x
CSc1ncc2c(=O)[nH]ccc2n1,0,x
COc1ccccc1N1CCN(S(=O)(=O)c2ccccc2)CC1,1,x
CN(C)S(=O)(=O)c1ccc(C(=O)OCCn2cnc3c2c(=O)n(C)c(=O)n3C)cc1,-9,x
CN(CC(=O)NC1CCCC1)S(=O)(=O)c1ccc2[nH]c3c(c2c1)CCCC3,7,x
Fc1cccc(CN2CCc3c([nH]c4ccccc34)C2)c1,6,-0.5
Cc1cccc(Nc2nnc(SCc3ccccc3C#N)s2)c1,3,x
CCON1C(=O)NC(c2cc(F)ccc2C)(C(F)(F)F)C1=O (configuration not stated),-2,-1.8
Cc1ccc(NC(=O)Cc2coc3ccc(C(C)C)cc23)cc1,10,-0.5
COc1cc2c(cc1OC)C(C)N(C(=O)CCN1C(=O)C3C4C=CC(C4)C3C1=O)CC2 (configuration not stated),4,-0.2
COc1ccc(CN(C)CC(O)COC2CCCc3ccccc32)cc1 (configuration not stated),-13,x
O=C(NN=C1CCCCC1)c1ccccc1,3,-3.0
CCC(=O)Nc1ccc(-c2csc(NCCN(CC)CC)n2)cc1,5,x
COc1ccc(NC(=O)CN(C)C(=O)C2=NN(C3CCS(=O)(=O)C3)C(=O)CC2)cc1 (configuration not stated),15,x
CCSc1nn2c(=O)cc(COc3ccc(CC)cc3)nc2s1,-9,x
CCC(CO)NC(=O)c1snnc1C (configuration not stated),-1,x
Nc1nc(SCC(=O)N2CCNC2=O)nc2sc3c(c12)CCCCC3,2,x
O=C(NCc1ccco1)c1ccc(Cn2c(=O)c3ccccc3n(Cc3ccccc3F)c2=O)cc1,-18,x
Nc1nnc(-c2ccco2)o1,-9,x
C/C(O)=C(\C(=O)Nc1ccccc1)C1(C(C#N)C(N)=O)CCCC1 (configuration not stated),-21,x
CC(C)C(NC(=O)c1cccs1)C(=O)Nc1nc2ccccc2s1 (configuration not stated),3,2.4
Cc1n[nH]c(C)c1Sc1nnnn1-c1ccccc1,x,-0.3
CCc1ccc(CNC(=O)c2ccc(CSCc3ccc(C)cc3)o2)cc1,8,-2.6
O=C1NCC(O)=C1C=Nc1ccc(C2CCCCC2)cc1,1,-0.1
CCCN(Cc1nnc(-c2ccco2)o1)C(=O)c1nn(-c2ccccc2)nc1C,-4,x
O=C(OCc1nnc(-c2ccc(Cl)cc2)o1)C1CCN(c2ccc(C(F)(F)F)cn2)CC1,3,x
Cc1[nH]n(CCc2ncc(-c3ccccc3)s2)c(=O)c1C1=NCCCCC1,10,x
Cc1nc(-c2cccnc2)nc(N2CCCN(Cc3ccc(F)cc3)CC2)c1Cl,x,-1.5
CCN1CCN(Cc2coc3ccccc3c2=O)CC1,x,-2.3
O=C(O)CSCC(=O)Nc1ccc(Oc2ccc(OC(F)(F)F)cc2)cc1,x,-2.0
O=C(CSc1nc2ccccc2s1)N1CCc2ccccc21,11,x
c1ccc(-c2nnc(-c3ccccc3)nn2)cc1,9,0.0
CC(C)(C)c1cc(C(=O)NCc2ccco2)n(Cc2ccc(F)cc2)n1,-22,x
C=CCN1C(=S)NC(C)(C)C=C1C,-4,-3.5
CC1(C)OC(=O)CC1C(=O)N1CCOCC1 (configuration not stated),16,x
CN(C(=O)C1CC(c2ccc(F)cc2)=NO1)c1ccccc1 (configuration not stated),-13,x

# Screening data from PubChem BioAssay.
